High-throughput results: PubChem, several laboratories
Autofluor counter: flagged as autofluorescent in microsphere protease counterscreen; compound autofluorescence counterscreen, microsphere flow cytometry; stronger effect = higher value; fluorescence intensity (no concentration beside the values); 360,000 tested, 3.1% active;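 active means at least 3 SD above the mean of all compounds, about 16000 in these data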;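 further: 100 nL of 1 mM stock went into each well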
RN4220 kill: S. aureus RN4220 growth inhibition. AID 1259311. 330,000 tested, 0.33% active. OD600, 16 h. inhibition, % (concentration not given with the values);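 active means z-score of -3 or lower and OD600 up to 0.18 on both plates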;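 further: plate controls were untreated cells for no effect and reference antibiotic for full effect; stock transfer was 100 nL into about 80 µL; one replicate is shown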
Sa ugtP lethal: growth inhibition of S. aureus ugtP deletion strain | S. aureus RN4220 ugtP deletion, OD600 growth, 16 h; some inactives read as strong as hits | growth inhibition, % (test concentration not listed) | 330,000 tested, 0.54% active | AID 1259309;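 active means z-score under -3 and OD600 up to 0.15 on both plates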;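 further: plate controls were untreated wells for no effect and antibiotic for full effect; wells of about 80 µL received 100 nL stock; the first replicate is given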
PrP UTR inh: inhibition of PrP 5' UTR reporter expression | cell-based PrP 5' UTR mRNA reporter, plate reader | inhibition, % (test concentration not listed) | 340,000 tested, 0.35% active | AID 488862;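 active means every replicate at 50% or more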;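 further: 0 = median of the neutral control wells; tested in H4 reporter cells; numbers are from one replicate; inactives centre near -14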
BJeLR viability: BJeLR cell viability loss. BJeLR (HRASV12) viability, CellTiter-Glo ATP luminescence, 48 h; reference of the scale not given here. inhibition, % (no concentration beside the values). 300,000 tested, 0.17% active. AID 1554;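 active means replicate mean above 50%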;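 further: 50 nL library stock added to about 25 µL; numbers are from one replicate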
Mtb hypoxia inh: inhibitors of hypoxia-regulated fluorescent reporter in Mycobacterium tuberculosis | 300,000 tested, 0.1% active | M. tuberculosis hypoxia-regulated fluorescent reporter, fluorescence | fluorescence inhibition, % (concentration not given with the values) | AID 1159583;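 active means 35 to 45% if threefold the growth effect, above 45% if 1.5-fold the growth effect; inactive means the rest, general growth blockers included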;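 further: wells of about 50 µL received 100 nL stock; 0% = vehicle wells and 100% = reference inhibitor wells; whole bacteria with a GFP reporter of the hypoxia response; strong numbers were not always called active; many hits fall short of the cut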
Mtb hypoxia inh growth: second read-out of Mtb hypoxia inh, no call of its own (marks repeat the call); growth inhibition, %; measured here: M. tuberculosis growth (absorbance);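 0% = vehicle and 100% = reference antibiotic; read after six days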
An asterisk follows results filed as active; . = not tested or not shown.

Each structure is followed by: BJeLR viability	Autofluor counter	PrP UTR inh	Sa ugtP lethal	Mtb hypoxia inh growth	RN4220 kill	Mtb hypoxia inh
CC(C)(C)OC(=O)N[C@@H](CCCCNC(=O)OCc1ccccc1)c1nnc([C@H](CCCCNC(=O)OCc2ccccc2)NC(=O)OC(C)(C)C)o1
  9	2905	-6	.	.	.	.
NC(Cc1cccc2ccccc12)=NOC(=O)Cc1cccs1
  .	.	.	11	4	3.4	3
O=[N+]([O-])c1cccc(O)c1
  .	5552	-13	2	9	6.3	12
Cc1ccc(S(=O)(=O)NC(CC(C)C)C(=O)NCC(C)(C)N2CCOCC2)cc1 (stereo not given)
  3	5199	-13	6	-6	1.8	-1
Cc1ccccc1CSc1nc2c(c(=O)[nH]1)CCC2
  -4	7999	0	8	4	6.9	8
O=C(COC(=O)C1CC2CCCC(C1)C2=O)Nc1ccc(Cl)cn1 (stereo not given)
  .	7997	-4	11	5	5.8	10
COc1ccc(N2CCN(Cc3cc(=O)oc4ccc(Cl)cc34)CC2)cc1
  -9	4219	2	11	11	4.5	4
c1ccc(SCc2nc(-c3ccncc3)n[nH]2)nc1
  0	3184	-12	-2	6	3.6	6
Cc1cccc(NC(=O)C2CC(=O)N/C(=N/N=Cc3ccco3)S2)c1 (stereo not given)
  .	.	.	-2	2	9.2	3
Clc1ccc(-n2ncc3c(N4CCCC4)ncnc32)cc1
  2	1979	40	10	2	2.9	11
O=C(COC(=O)Cc1c(Cl)cccc1Cl)Nc1ccccc1-c1ccccc1
  0	1957	-76	5	4	11	20
CN1CCN(CCCNC(=O)c2ccc(CS(=O)(=O)c3ccc(Br)cc3)o2)CC1
  -7	6158	-35	-1	.	1.6	.
COc1ccc(C)cc1NC(=O)CCc1c(C)nn(-c2ccc(N3CCCCC3)nn2)c1C
  12	5322	-46	2	7	0.6	6
COc1cccc(NC(=S)N2CCn3cccc3C2c2cccnc2)c1 (stereo not given)
  3	3483	-20	4	3	-0.1	-10
O=C(CCn1c(=O)oc2ccccc21)Nc1cccc(Cl)c1
  7	6689	-36	-1	2	-0.3	2

Record cards, from the list above:
Listed for c1ccc(SCc2nc(-c3ccncc3)n[nH]2)nc1 : BJeLR viability = 0; Autofluor counter = 3184; PrP UTR inh = -12; Sa ugtP lethal = -2; Mtb hypoxia inh growth = 6; RN4220 kill = 3.6; Mtb hypoxia inh = 6
Listed for NC(Cc1cccc2ccccc12)=NOC(=O)Cc1cccs1 : BJeLR viability = .; Autofluor counter = .; PrP UTR inh = .; Sa ugtP lethal = 11; Mtb hypoxia inh growth = 4; RN4220 kill = 3.4; Mtb hypoxia inh = 3

Carrying on.
Each structure is followed by: BJeLR viability	Autofluor counter	PrP UTR inh	Sa ugtP lethal	Mtb hypoxia inh growth	RN4220 kill	Mtb hypoxia inh
CN1CCN(Cc2ccccc2Sc2ccccc2)CC1
  -6	11024	-12	33	10	-0.9	5
COCCNC(=O)c1cc(-c2ccncc2)nc2ccc(S(=O)(=O)N3CCOCC3)cc12
  0	4170	-41	-1	-1	0.3	0
CCc1noc(C)c1C(=O)OC(C)C(=O)c1c(C)[nH]c2ccccc12 (stereo not given)
  .	7591	-11	-13	7	4.9	6
O=C1OCc2nc3cc4c(cc3c(-c3ccc(F)cc3)c21)OCO4
  -7	3912	-25	2	3	4.8	8
O=C(COC(=O)CCc1c[nH]c2ccccc12)NCCc1ccccc1
  -4	5185	-17	.	.	.	.
Cc1cc(F)ccc1NC(=O)Cn1c(C)csc1=O
  .	3944	-13	1	5	-0.3	-3
O=C(NCc1ccc2c(c1)OCO2)c1cc(COc2c(F)cccc2F)on1
  0	5031	-11	8	-1	-7.3	-2
O=C(NC(NC(=S)N1CCOCC1)C(Cl)(Cl)Cl)c1cccc2ccccc12 (stereo not given)
  -1	7191	-17	-4	-4	1.3	8
COC(=O)CSc1ncnc2scc(-c3ccccc3)c12
  2	4550	-10	-1	6	-1.7	-4
CCOC(=O)CNc1nc(OCC#N)nc(N2CCOCC2)n1
  4	2442	-26	4	.	1.2	.
Cc1[nH]c2ccccc2c1C(=O)CCl
  0	5272	-35	1	.	18	.
COc1ccc(-c2noc(N3CCCC(C(=O)Nc4ccc(C(C)=O)cc4)C3)n2)cc1 (stereo not given)
  2	6489	-45	4	13	1.0	-1
CCCc1cc(=O)[nH]c(SCC)n1
  12	9119	6	-1	3	1.8	1
Cc1ccc(OCC(=O)NN=Cc2cccc3cccnc23)cc1
  .	.	.	0	-8	0.4	2
CCOc1ccc2ccccc2c1/C=N\NC(=O)c1ccc([N+](=O)[O-])cc1
  3	3205	-2	.	.	.	.

Carrying on.
Each structure is followed by: BJeLR viability	Autofluor counter	PrP UTR inh	Sa ugtP lethal	Mtb hypoxia inh growth	RN4220 kill	Mtb hypoxia inh
COc1ccc2cc(C(C)C(=O)NC3CCC(O)CC3)ccc2c1 (stereo not given)
  9	3667	-4	8	2	2.3	9
COc1ccc(OC(=O)c2cc3ccccc3o2)cc1
  -3	2924	-14	38	12	11	17
CCN(CC)S(=O)(=O)c1ccc(-c2nnc(SCC(=O)N3c4ccccc4CC3C)o2)cc1 (stereo not given)
  3	5732	-29	-2	1	-1.0	-11
CC(=O)c1ccc2c(c1)C1C(Cl)C(Sc3ccccc3[N+](=O)[O-])CC1C(c1ccccc1)N2 (stereo not given)
  2	3034	2	1	4	-1.3	0
O=c1c2c(n3cnnc3n1C1CCCCC1)-c1ccccc1CC21CCCCC1
  0	8670	6	-4	4	-1.9	-4
CCCCNS(=O)(=O)CCNCc1ccc(OC)cc1
  .	3614	-23	0	3	3.3	-2
Cc1csc(NC(=O)CSc2nccn2C)n1
  8	6665	-19	-6	-11	-3.5	-9
O=C(NC1CC1)c1ccc(NS(=O)(=O)c2ccccc2)cc1
  3	5312	-7	3	-2	-0.6	-2
CCCC1c2ccc(C)n2CCN1C(=O)Nc1ccccc1Cl (stereo not given)
  7	4091	-47	-8	8	-9.0	8
O=C(O)CCNC1C=CS(=O)(=O)C1 (stereo not given)
  6	3548	-18	-1	0	2.1	-8
O=C(COC(=O)c1cccs1)NCC1CCCO1 (stereo not given)
  1	3337	-21	-6	7	-16	8
COc1ccc(NC(=O)C2CCCN(S(=O)(=O)c3c(C)n[nH]c3C)C2)c(OC)c1 (stereo not given)
  2	3004	-14	-2	.	1.4	.
O=C(NCCc1cccc(Cl)c1)c1cc([N+](=O)[O-])ccc1Cl
  4	2334	-31	-2	7	5.3	4
Cc1ccccc1C(=O)N1CC(=O)Nc2ccc(F)cc2C1c1ccccc1 (stereo not given)
  -7	3607	-25	-5	2	2.3	8
Cc1cccc(C(=O)Nc2ccc(S(=O)(=O)N3CCOCC3)cc2)c1[N+](=O)[O-]
  3	3116	-1	2	10	2.8	7

(further entries)
Each structure is followed by: BJeLR viability	Autofluor counter	PrP UTR inh	Sa ugtP lethal	Mtb hypoxia inh growth	RN4220 kill	Mtb hypoxia inh
CCN1C(=O)C2C(c3ccc(C)cc3)N3C(=O)N(c4ccc(C(F)(F)F)cc4)C(=O)[C@@]3(CC(C)C)C2C1=O (stereo not given in full)
  .	.	.	-46	8	1.8	-1
CCCCC1COCCS(=O)(=O)N1Cc1cccc([N+](=O)[O-])c1 (stereo not given)
  .	.	.	2	6	7.9	3
CCOc1ccc(CCNC(=O)CSc2ncn[nH]2)cc1OCC
  0	5576	-7	4	9	2.3	-6
CCC(=O)Oc1ccc2ccccc2c1CNC(=O)c1ccccc1
  -19	9508	-27	-3	-6	-1.5	-1
O=C(CSc1nnc(-c2ccc(Cl)cc2)n1-c1ccccc1)NN=Cc1ccccc1C(=O)O
  .	.	.	2	3	9.1	19
O=C(COc1ccccc1Cl)NCCCNC(=O)c1ccncc1
  2	3730	-47	2	4	1.9	5
COC(=O)CCCC1=CC2=C(c3ccccc3)C(=O)C(C)(OC(=O)C3CCCC3)C(=O)C2=CN1Cc1ccco1 (stereo not given)
  -1	3614	-10	4	10	2.9	13
Clc1ccccc1CNCc1ccncc1
  10	4275	-18	6	-1	0.2	12
CN(CC(=O)NC(=O)Nc1ccccc1F)Cc1ccccc1F
  .	3777	-27	3	0	3.2	-12
COCCN(CCOC)C(=O)c1sc2nc(-c3ccccc3)cn2c1C
  -3	5714	-17	-6	10	2.0	7
CCOC(=O)C1(Cc2ccccc2)CCCN(Cc2cnn(CC)c2)C1 (stereo not given)
  6	4000	-24	6	0	4.1	7
Nc1ccc(C(=O)NNC(=O)C2COc3ccccc3O2)cc1[N+](=O)[O-] (stereo not given)
  7	5299	-7	-3	-2	0.5	-4
C=CCn1c(-c2cccc(Cl)c2)n[nH]c1=S
  -9	2908	-13	-3	7	-20	5
Cc1ccc(NC(=O)CN(C)C(=O)Cc2c[nH]c3ccccc23)cc1
  .	5973	-8	8	10	5.9	7
CCC(CC)NCc1c[nH]c2ccccc12
  -7	2256	-19	4	0	-2.2	10

Next results follow:
Each structure is followed by: BJeLR viability	Autofluor counter	PrP UTR inh	Sa ugtP lethal	Mtb hypoxia inh growth	RN4220 kill	Mtb hypoxia inh
Cc1ccc(C(=O)NCC(=O)OCc2c(F)cccc2Cl)s1
  .	.	-32	5	7	3.3	7
CC(C)CN(CC(C)C)C(=O)Nc1ccccc1F
  7	2475	-14	11	2	7.7	10
CCOC(=O)C1(CCSC)NC(c2ccco2)C2C(=O)N(C)C(=O)C21 (stereo not given)
  -1	4033	-13	1	9	1.8	7
O=C(COc1ccccc1)NCc1cccs1
  -5	2393	-17	-6	.	-3.8	.
C=CCn1c(SCC(=O)NCc2ccc3c(c2)OCO3)nc2scc(-c3ccc(F)cc3)c2c1=O
  -12	6920	6	10	3	5.6	9
COc1ccc(NC(=S)NC23CC4CC(CC(C4)C2)C3)cc1OC
  -9	5803	-7	-1	10	2.1	-9
CN(C)S(=O)(=O)c1ccc(NC(=S)NC(=O)c2ccc(Br)o2)cc1
  7	.	.	-10	0	10	5
Cc1cc(C)n(-c2nnc(C)n2NS(=O)(=O)c2ccc(F)cc2)n1
  20	6723	-37	13	-3	2.9	0
O=C(CCNC(=O)c1ccco1)Nc1nc2ccccc2s1
  .	6626	-44	-2	0	0.5	1
O=c1ccnc(Nc2ccc([N+](=O)[O-])cc2)[nH]1
  11	6515	-14	5	15	3.2	17
Cc1cc(C)c(CN2CCN(C(=O)Cn3cnc(C(=O)Nc4ccc(C)c(C)c4)n3)CC2)c(C)c1
  .	3112	-18	-5	-1	4.3	-5
Cc1ccc(-c2nc3ncccc3n2O)cc1
  1	3082	-13	-1	18	0.9	26
CCCCCCCCN1C(CC(=O)OCC)c2cc(C(F)(F)F)ccc2S1(=O)=O (stereo not given)
  .	.	.	10	7	0.4	17
CC(C)N1CCN(Cc2cnc(N3CCCC3)s2)CC1CCO (stereo not given)
  .	3681	-12	19	11	8.4	0
Cc1ccccc1C(=O)c1cccn1CC(=O)NCc1ccc2c(c1)OCO2
  -6	8693	-16	3	17	6.3	17
